RN4220 kill = S. aureus RN4220 growth inhibition; OD600, 16 h; 0.33% of 330,000 active; inhibition, % (no concentration beside the values); AID 1259311;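 active = z-score of -3 or lower and OD600 up to 0.18 on both plates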;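 also: plate controls were untreated cells for no effect and reference antibiotic for full effect; stock transfer was 100 nL into about 80 µL; one replicate is shown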
PrP UTR inh = suppresses PrP 5' UTR mRNA reporter expression; cell-based PrP 5' UTR mRNA reporter, plate reader; inhibition, % (test concentration not listed); 0.35% of 340,000 active; AID 488862;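 active = every replicate at 50% or more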;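 also: 0 = median of the neutral control wells; tested in H4 reporter cells; numbers are from one replicate; inactives centre near -14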
Mtb hypoxia inh = reduces hypoxia-regulated biosensor signal in M. tuberculosis. M. tuberculosis hypoxia-regulated fluorescent reporter, fluorescence. fluorescence inhibition, % (no concentration beside the values). 0.1% of 300,000 active;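 active = 35 to 45% if threefold the growth effect, above 45% if 1.5-fold the growth effect; inactive = the rest, general growth blockers included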;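 also: wells of about 50 µL received 100 nL stock; 0% = vehicle wells and 100% = reference inhibitor wells; whole bacteria with a GFP reporter of the hypoxia response; strong numbers were not always called active; many hits fall short of the cut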
BJeLR lethal = BJeLR cell viability loss | 0.17% of 300,000 active | AID 1554 | inhibition, % (test concentration not listed) | BJeLR (HRASV12) viability, CellTiter-Glo ATP luminescence, 48 h; reference of the scale not given here;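 active = replicate mean above 50%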;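 also: 50 nL library stock added to about 25 µL; numbers are from one replicate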
Sa ugtP lethal = compounds lethal to S. aureus RN4220 ugtP deletion mutant | AID 1259309 | 0.54% of 330,000 active | growth inhibition, % (concentration not given with the values) | OD600 growth, 16 h; some inactives read as strong as hits;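 active = z-score under -3 and OD600 up to 0.15 on both plates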;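 also: plate controls were untreated wells for no effect and antibiotic for full effect; wells of about 80 µL received 100 nL stock; the first replicate is given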
Autofluor counter = flagged as autofluorescent in microsphere protease counterscreen | 3.1% of 360,000 active | fluorescence intensity (concentration not given with the values) | compound autofluorescence counterscreen, microsphere flow cytometry; active compounds read high;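 active = at least 3 SD above the mean of all compounds, about 16000 in these data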;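 also: 100 nL of 1 mM stock went into each well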
Mtb hypoxia inh growth = further read-out of Mtb hypoxia inh, marked with its call; growth inhibition, %; measured here: M. tuberculosis growth (absorbance);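 0% = vehicle and 100% = reference antibiotic; read after six days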
* marks the source's active call; other numbers are inactive results.

The first 2 entries, ahead of the listing:
`COc1ccc(CN2CCNC(=O)C2CC(=O)NC2CCCCC2)c(OC)c1` (stereo not drawn) gave RN4220 kill -0.7, PrP UTR inh -9, Mtb hypoxia inh 0, BJeLR lethal -19, Sa ugtP lethal 10, Autofluor counter 5711 and Mtb hypoxia inh growth 4.
CC1CCCN(C(=O)c2cn(-c3ccccc3)nc2-c2cccnc2)C1 (stereo not drawn) was read as RN4220 kill 4.3, PrP UTR inh -15, Mtb hypoxia inh 12, BJeLR lethal -2, Sa ugtP lethal 6 and Mtb hypoxia inh growth 0.

Main list (from the top)
`COc1ccc(CN2CCNC(=O)C2CC(=O)NC2CCCCC2)c(OC)c1` (stereo not drawn) gave RN4220 kill -0.7, PrP UTR inh -9, Mtb hypoxia inh 0, BJeLR lethal -19, Sa ugtP lethal 10, Autofluor counter 5711 and Mtb hypoxia inh growth 4.
CC1CCCN(C(=O)c2cn(-c3ccccc3)nc2-c2cccnc2)C1 (stereo not drawn) was read as RN4220 kill 4.3, PrP UTR inh -15, Mtb hypoxia inh 12, BJeLR lethal -2, Sa ugtP lethal 6 and Mtb hypoxia inh growth 0.
`N#C/C(=C\c1ccc(-c2ccc(C(=O)O)cc2)o1)C(=O)Nc1ccc(F)cc1` gave RN4220 kill 3.3, PrP UTR inh -28, Mtb hypoxia inh 6, BJeLR lethal -4, Sa ugtP lethal -14, Autofluor counter 4293 and Mtb hypoxia inh growth 4.
N#Cc1cccc(-c2nnc(SCc3ccccc3C#N)o2)c1 was read as RN4220 kill 4.0, PrP UTR inh -41, Mtb hypoxia inh 1, BJeLR lethal -5, Sa ugtP lethal -2, Autofluor counter 4590 and Mtb hypoxia inh growth 7.
COCC(C)NC(=O)C1CC(c2cccc(Br)c2)=NO1 (stereo not drawn) was read as RN4220 kill -1.8, PrP UTR inh -8, Mtb hypoxia inh 6, BJeLR lethal -4, Sa ugtP lethal -3, Autofluor counter 6030 and Mtb hypoxia inh growth -1.
For NS(=O)(=O)c1ccc(CCNC(=O)C2CC(=O)N(Cc3ccccc3Cl)C2)cc1 (stereo not drawn) the results were RN4220 kill 3.5, PrP UTR inh -10, Mtb hypoxia inh 5, Sa ugtP lethal 4, Autofluor counter 4205 and Mtb hypoxia inh growth -2.
Screening N#Cc1cn(Cc2ccccc2)c(=O)[nH]c1=O returned RN4220 kill 1.6, PrP UTR inh -10, Mtb hypoxia inh -4, BJeLR lethal -2, Sa ugtP lethal 2, Autofluor counter 3815 and Mtb hypoxia inh growth -3.
`CCOC(=O)N1CCN(C(=O)CSc2ccc(-c3ccccc3)nn2)CC1` gave RN4220 kill 0.3, PrP UTR inh -18, Mtb hypoxia inh 14, BJeLR lethal -8, Sa ugtP lethal 5, Autofluor counter 3707 and Mtb hypoxia inh growth 3.
Screening C=CCOc1ccc(Br)cc1/C=N/O returned PrP UTR inh -11, BJeLR lethal 4 and Autofluor counter 2950.
For CCC(C)(C)NC(=O)C(c1ccc(OC)cc1)N(C(=O)CCC(=O)Nc1cc(C)on1)c1ccccc1F (stereo not drawn) the results were RN4220 kill 5.2, PrP UTR inh -23, Mtb hypoxia inh 10, BJeLR lethal -4, Sa ugtP lethal 12, Autofluor counter 3460 and Mtb hypoxia inh growth 10.
For CC12CCC(=O)N1C(C(=O)Nc1nc3ccc(F)cc3s1)CS2 (stereo not drawn) the results were RN4220 kill 4.2, PrP UTR inh -30, Mtb hypoxia inh 4, Sa ugtP lethal 2, Autofluor counter 3834 and Mtb hypoxia inh growth 3.
`CCOC(=O)c1c(/N=C/N(C)C)sc(C)c1C` gave PrP UTR inh -27, BJeLR lethal 10 and Autofluor counter 3853.
For CCOC(=O)C1=CCC2c3c(c4ccccc4n3C)C(=O)C1N2S(=O)(=O)c1ccc(C)cc1 (stereo not drawn) the results were RN4220 kill 1.8, Mtb hypoxia inh -3, Sa ugtP lethal -14 and Mtb hypoxia inh growth 4.
CCOc1cc(C2Nc3ccccc3NC3=C2C(=O)CC(C)(C)C3)ccc1OC(C)=O (stereo not drawn) was read as RN4220 kill 1.3, PrP UTR inh 9, Mtb hypoxia inh 6, BJeLR lethal 7, Sa ugtP lethal 1, Autofluor counter 3810 and Mtb hypoxia inh growth 2.
COc1cccc(C(=O)NCCSc2c(C)[nH]c3ccccc23)c1OC was read as RN4220 kill 8.0, PrP UTR inh 18, Mtb hypoxia inh 15, BJeLR lethal 9, Sa ugtP lethal 6, Autofluor counter 4720 and Mtb hypoxia inh growth 14.
Screening CC(=NNc1cc(N2CCOCC2)ncn1)c1cccc([N+](=O)[O-])c1 returned RN4220 kill 4.2, Mtb hypoxia inh 7, Sa ugtP lethal -5 and Mtb hypoxia inh growth 4.
Cn1c(=O)c(C(=O)CSc2nnc(Nc3ccccc3)s2)c(N)n(Cc2ccccc2)c1=O was read as RN4220 kill -1.2, PrP UTR inh -10, BJeLR lethal 3, Sa ugtP lethal -1 and Autofluor counter 2168.
For Cc1cc(C)n(-c2nnc(N3CCN(c4ccc(F)cc4)CC3)nn2)n1 the results were RN4220 kill -1.5, PrP UTR inh -10, Mtb hypoxia inh 17, BJeLR lethal 4, Sa ugtP lethal -4, Autofluor counter 3340 and Mtb hypoxia inh growth 17.
`COc1ccc(NC(=O)COC(=O)c2ccc(-n3nc(C)cc3C)cc2)cc1OC` gave RN4220 kill -1.7, PrP UTR inh -31, Mtb hypoxia inh 26, Sa ugtP lethal 2, Autofluor counter 7822 and Mtb hypoxia inh growth 48.
O=C(COc1ncnc2ccccc12)Nc1cc(S(=O)(=O)N2CCOCC2)ccc1Cl was read as RN4220 kill 0.1, PrP UTR inh -1, Mtb hypoxia inh -9, BJeLR lethal -11, Sa ugtP lethal 4, Autofluor counter 4522 and Mtb hypoxia inh growth 2.
Screening COC(=O)CC1=C(C(=O)OC)C(c2ccncc2)C(C#N)=C(N)O1 (stereo not drawn) returned RN4220 kill -5.0, PrP UTR inh -15, Mtb hypoxia inh 14, BJeLR lethal -3, Sa ugtP lethal -4, Autofluor counter 2837 and Mtb hypoxia inh growth 8.
Screening Cc1nnc(NC(=O)CSc2cn(Cc3ccccc3)c3ccccc23)s1 returned RN4220 kill 10, PrP UTR inh -9, Mtb hypoxia inh -2, BJeLR lethal 3, Sa ugtP lethal 15, Autofluor counter 4305 and Mtb hypoxia inh growth -1.
For COc1ccccc1CCN=C(N)NS(=O)(=O)c1ccc(C)c(C)c1 the results were RN4220 kill 3.6, PrP UTR inh 0, Mtb hypoxia inh 2, BJeLR lethal 11, Sa ugtP lethal -7, Autofluor counter 5502 and Mtb hypoxia inh growth -2.
Screening COc1ccc(C(CC(=O)O)NC(C)=O)cc1OC (stereo not drawn) returned RN4220 kill 6.4, PrP UTR inh -4, BJeLR lethal -3, Sa ugtP lethal 11 and Autofluor counter 2200.
Screening CC1=CC(C)(C)N(S(=O)(=O)c2ccc(C)cc2)c2ccccc21 returned RN4220 kill 8.5, PrP UTR inh -49, Mtb hypoxia inh 5, BJeLR lethal 23, Sa ugtP lethal 79, Autofluor counter 10555 and Mtb hypoxia inh growth 7.
Screening COc1ccc([N+](=O)[O-])c(OC)c1C(=O)NC(=O)Nc1c(F)cc(F)cc1F returned RN4220 kill 0.7, PrP UTR inh -2, Mtb hypoxia inh -7, BJeLR lethal 0, Sa ugtP lethal -6, Autofluor counter 6083 and Mtb hypoxia inh growth 6.
For c1cc(C2OCCN2CC2COC3(CCCC3)O2)ccn1 (stereo not drawn) the results were RN4220 kill 7.2, PrP UTR inh 1, Mtb hypoxia inh 4, BJeLR lethal -8, Sa ugtP lethal 1, Autofluor counter 3199 and Mtb hypoxia inh growth 0.
For O=C(COC(=O)c1cc(=O)[nH]c2ccccc12)c1ccccc1 the results were RN4220 kill 3.6, PrP UTR inh -20, Mtb hypoxia inh -1, BJeLR lethal -1, Sa ugtP lethal 2, Autofluor counter 3871 and Mtb hypoxia inh growth -2.
For CCS(=O)(=O)N1CCC(C(=O)Oc2ccccc2OC)CC1 the results were RN4220 kill 5.0, PrP UTR inh -13, Mtb hypoxia inh 9, BJeLR lethal 6, Sa ugtP lethal 6, Autofluor counter 3619 and Mtb hypoxia inh growth 9.
`Cc1cc(C(=O)CSc2nnnn2C)c(C)n1CCc1ccc(F)cc1` gave RN4220 kill 3.1, PrP UTR inh -13, Mtb hypoxia inh 14, BJeLR lethal -4, Sa ugtP lethal -4, Autofluor counter 3933 and Mtb hypoxia inh growth 6.
For COc1ccccc1/C=C(/C(=O)OCC(=O)N(C)Cc1ccccc1)c1ccccc1 the results were RN4220 kill -3.2, PrP UTR inh -9, Mtb hypoxia inh 13, BJeLR lethal 2, Sa ugtP lethal 10, Autofluor counter 1909 and Mtb hypoxia inh growth 2.
CC(C)(C)NC(=O)CSc1nnc(NC(=O)c2ccccc2Cl)s1 was read as RN4220 kill 0.8, PrP UTR inh -28, Mtb hypoxia inh -8, BJeLR lethal -6, Sa ugtP lethal 2, Autofluor counter 3506 and Mtb hypoxia inh growth 2.
CC1CCC(NC(=O)CSc2nnnn2C)CC1 (stereo not drawn) was read as RN4220 kill -1.0, PrP UTR inh -10, Mtb hypoxia inh 3, Sa ugtP lethal 4, Autofluor counter 3881 and Mtb hypoxia inh growth 0.
For NC(=O)Cn1c(=O)n(C2CCCCC2)c(=O)c2c3c(sc21)CCCCC3 the results were RN4220 kill 1.3, PrP UTR inh -2, Mtb hypoxia inh -3, BJeLR lethal -4, Sa ugtP lethal 30, Autofluor counter 2053 and Mtb hypoxia inh growth 0.
For COC(=O)c1ccccc1NC(=O)CCS(=O)(=O)c1cc2c(cc1C)NC(=O)CO2 the results were RN4220 kill -8.9, PrP UTR inh -18, Mtb hypoxia inh -1, BJeLR lethal -3, Sa ugtP lethal -5, Autofluor counter 5906 and Mtb hypoxia inh growth 0.
CCOc1ccc(C2C(C#N)=C(N)Oc3n[nH]c(C)c32)cc1OC(=O)C1CC1 (stereo not drawn) was read as RN4220 kill 3.7, PrP UTR inh -11, Mtb hypoxia inh 14, BJeLR lethal -14, Sa ugtP lethal 11, Autofluor counter 9526 and Mtb hypoxia inh growth 7.
Screening COc1ccc(NC(=O)[C@@H]2CC=C[C@@H]3CCN(C4CCCCC4)C(=O)[C@@H]32)cc1 returned PrP UTR inh -14, BJeLR lethal -7 and Autofluor counter 3646.
O=C(NCc1ccc(OC(F)(F)F)cc1)C1CC(c2c(Cl)cccc2Cl)=NO1 (stereo not drawn) was read as RN4220 kill -3.1, PrP UTR inh -23, Mtb hypoxia inh 9, BJeLR lethal 7, Sa ugtP lethal -2, Autofluor counter 4260 and Mtb hypoxia inh growth -2.
O=C(O)c1ccccc1-c1ccccc1C(=O)Nc1ccc(F)cc1 was read as RN4220 kill 0.7, BJeLR lethal 3, Sa ugtP lethal 14 and Autofluor counter 2846.
CCOC(=O)C1=C(O)CCn2c1nc1ccccc12 was read as RN4220 kill 2.5, PrP UTR inh 7, Mtb hypoxia inh -4, BJeLR lethal -6, Sa ugtP lethal -2, Autofluor counter 19422* and Mtb hypoxia inh growth 6.
O=[N+]([O-])c1ccc(Nc2ccccc2)c2nonc12 was read as PrP UTR inh 0, BJeLR lethal 7 and Autofluor counter 4715.
`CCOC(=O)C1CCN(C(=O)CCNC(=O)c2cc(OC)c(OC)c(OC)c2)CC1` gave RN4220 kill 7.1, PrP UTR inh -3, Mtb hypoxia inh 6, BJeLR lethal -10, Sa ugtP lethal 15, Autofluor counter 16426* and Mtb hypoxia inh growth -4.
Screening O=C(N/N=C/c1cc2c(cc1Cl)OCO2)c1ccccn1 returned PrP UTR inh -65, BJeLR lethal 23 and Autofluor counter 8184.
COC(=O)c1ccc(/C=N/N2CCN(Cc3ccccc3)CC2)cc1 was read as PrP UTR inh -12, BJeLR lethal -2 and Autofluor counter 2784.
For CNC(=O)Nc1cc(NC(=O)NC)cc(C(F)(F)F)c1 the results were RN4220 kill 3.5, PrP UTR inh -5, Mtb hypoxia inh 19, BJeLR lethal -6, Sa ugtP lethal 2, Autofluor counter 3913 and Mtb hypoxia inh growth 4.
For CCC(C)C(C(=O)N1CCNCC1)n1cc(C(N)Cc2ccc(O)cc2)nn1 (stereo not drawn) the results were RN4220 kill 3.7, Mtb hypoxia inh 4, Sa ugtP lethal -4 and Mtb hypoxia inh growth 3.
`CCNC(=O)NC(=O)CSc1nc2ccccc2n1CCOC` gave RN4220 kill 1.3, PrP UTR inh -26, BJeLR lethal -8, Sa ugtP lethal 9 and Autofluor counter 2810.
`Cn1cnnc1SCc1ccc(C(=O)N/N=C(/CCC(=O)O)c2ccc(C(C)(C)C)cc2)cc1` gave RN4220 kill 3.1, PrP UTR inh -29, Mtb hypoxia inh 6, Sa ugtP lethal 4, Autofluor counter 3533 and Mtb hypoxia inh growth 8.

Compound activity (PubChem)
